# Assay outcomes (PubChem BioAssay)
# Six1-Eya2 blk: inhibitors of human Six1/Eya2 interaction. activity change, % (concentration not given with the values). AlphaScreen GST-Six1/His-Eya2 binding, biochemical; stronger effect = lower value; control for the full effect not named in the record. Q15475+O00167. 360,000 compounds, 0.56% hits; in the data active = activity change below about -65%; inconclusive = about -30% to -65%; inactive = above about -30%; further: on the % scale 0 is the no-effect control and ±100 the full control effect
#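 Compounds are tested against tagged Six1 and Eya2 proteins bridged by glutathione donor and nickel acceptor beads; after a one-hour incubation at 37 °C without light, AlphaScreen emission is recorded.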
# TRPML1 inh: human mucolipin-1 channel inhibition. Q9GZU1. TRPML1-inducible cells, Ca2+ dye fluorescence, FDSS; stronger effect = lower value; inhibition of EC80 agonist-evoked calcium signal. activity change, negative = inhibition, % (test concentration not listed). 390,000 compounds, 0.02% hits; in the data active means activity change below about -50%; inconclusive means about -30% to -50%; inactive means above about -30%;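 further: stimulus is agonist 54-4 at its EC80 concentration; on the % scale 0 is the no-effect control and ±100 the full control effect; compound concentration not given in the record; the text of the record puts the active cut at -80%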
# Target sequence (Q9GZU1 whole entry, looked up): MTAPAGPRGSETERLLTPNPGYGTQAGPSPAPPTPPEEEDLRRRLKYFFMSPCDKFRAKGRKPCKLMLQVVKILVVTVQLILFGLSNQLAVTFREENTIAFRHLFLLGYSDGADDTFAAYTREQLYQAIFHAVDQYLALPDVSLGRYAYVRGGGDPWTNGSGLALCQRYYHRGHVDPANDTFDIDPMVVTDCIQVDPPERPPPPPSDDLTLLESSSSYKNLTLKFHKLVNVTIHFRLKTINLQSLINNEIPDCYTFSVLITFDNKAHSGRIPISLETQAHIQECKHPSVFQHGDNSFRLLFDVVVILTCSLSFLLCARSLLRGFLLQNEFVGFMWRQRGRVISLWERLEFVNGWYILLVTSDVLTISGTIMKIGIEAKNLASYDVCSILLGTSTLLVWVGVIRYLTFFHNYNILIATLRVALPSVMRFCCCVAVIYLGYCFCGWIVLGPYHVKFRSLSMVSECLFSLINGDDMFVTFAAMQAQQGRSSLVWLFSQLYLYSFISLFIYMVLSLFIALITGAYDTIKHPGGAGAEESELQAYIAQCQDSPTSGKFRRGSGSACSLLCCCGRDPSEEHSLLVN
#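 Tet-induced TRPML1-DL cells loaded with Ca8 no-wash calcium dye were read kinetically on FDSS. Compound addition was followed by EC80 agonist 54-4 (4 uM final); inhibition was read over 110 s.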
# TRPML1 ag: agonists of human TRPML1 channel; TRPML1-expressing cells, Ca2+ dye fluorescence, FDSS; host cell line not named in the record; reference of the full effect not given here; activation, % (test concentration not listed); 410,000 compounds, 0.12% hits; AID 624414; in the data active = activation above about 50%; inconclusive = about 30% to 50%; inactive = below about 30%; further: 0% is about no effect; the text of the record puts the active cut at 80%
#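 TRPML1-DL cells, Tet-induced overnight (~16 h, 37 degrees C), loaded 45-90 min at room temperature with Ca8 no-wash calcium dye plus quencher. FDSS fluorescence: 10 s baseline, compound pin-transfer, 110 s agonist read, then EC80 54-4 (4uM final) and 110 s antagonist read.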
# PINK1 modulator: changes PINK1 expression; Potency, µM (top dose mostly 76.6 µM), inactives show at the top dose activation (PINK1 increase), usual class: activators; PINK1 immunofluorescence, high-content cytometry, 24 h; 410,000 compounds, 0.2% hits; active = well fitted activation curve with a large enough effect; inconclusive = small, poorly fitted or top-dose-only effect; inactive = flat fitted curve, though single readings scatter; cell line not stated here;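 further: potency means the concentration at half of the fitted maximal effect; % of control where 0% means no effect; nearly all actives have a fitted effect of over 65% in size; a mitochondrial uncoupler was the plate control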
#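 Stable cell line treated 24 h with compounds at 5 concentrations (CCCP controls), then fixed and immunostained for PINK1 plus nuclear and cell stains; PINK1 immunofluorescence quantified by laser-scanning microplate cytometry.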
# D2 potentiator: potentiates the human D2 dopamine receptor allosterically; P14416; DiscoveRx D2 beta-arrestin cells, luminescence, 90 min; 100% = 57 uM dopamine signal; potentiation, % (concentration not given with the values); 360,000 compounds, 0.23% hits; active = potentiation of 50% or more; inconclusive = 30% to 50%; inactive = 30% or less;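 further: tested on top of an EC20 dose of dopamine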
# Target sequence (P14416 whole entry, looked up): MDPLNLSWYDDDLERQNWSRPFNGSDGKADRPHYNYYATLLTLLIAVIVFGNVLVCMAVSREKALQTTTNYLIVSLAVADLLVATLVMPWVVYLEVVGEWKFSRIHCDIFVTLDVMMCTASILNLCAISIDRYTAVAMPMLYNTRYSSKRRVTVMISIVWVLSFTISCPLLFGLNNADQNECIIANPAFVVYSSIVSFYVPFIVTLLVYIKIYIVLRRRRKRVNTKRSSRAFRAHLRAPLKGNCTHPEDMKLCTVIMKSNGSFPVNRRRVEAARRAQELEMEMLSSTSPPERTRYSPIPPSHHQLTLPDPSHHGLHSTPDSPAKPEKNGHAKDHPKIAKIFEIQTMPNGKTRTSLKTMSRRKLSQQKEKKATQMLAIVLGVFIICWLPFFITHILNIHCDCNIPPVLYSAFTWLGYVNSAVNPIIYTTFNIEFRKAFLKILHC
#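 PathHunter beta-arrestin assay in DiscoveRx D2 cells. Compounds were added with an EC20 of dopamine (50 nM final) for 90 min at 37 deg C. Luminescence was read 1 h after detection reagent, with 57 uM dopamine as the EC100 control.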
# D2 agonist: human D2 receptor agonism in beta-arrestin assay | P14416 | DiscoveRx PathHunter D2 beta-arrestin, luminescence, 90 min; 100% = 57 uM dopamine signal | activation, % (no concentration beside the values) | 360,000 compounds, 0.084% hits; in the data active = activation above about 40%; inconclusive = about 15% to 40%; inactive = below about 15%; further: compound concentration not given in the record; the text of the record calls up to 30% inactive
#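 DiscoveRx PathHunter D2 beta-arrestin cells (2,100/well) attached overnight, then compound-stimulated 90 min at 37 C in HBSS/10 mM HEPES/0.1% Tween-20 buffer; beta-galactosidase complementation read by luminescence after 1 h at ambient temperature. Dopamine 57 uM final (EC100) as control.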
# An asterisk follows results filed as active; ? = inconclusive; . = no result given; & = joins results of further samples; [ ] = remark or other dose.
# Results follow in this order: Six1-Eya2 blk	TRPML1 inh	TRPML1 ag	PINK1 modulator	D2 potentiator	D2 agonist
Cc1ccc(S(=O)(=O)N2CCN(C)CC2)cc1[N+](=O)[O-]
  -1	-8	0.5	-2.6%[38.3 µM]	-4	0.7
COc1cc(/C=N/N(C)c2ccccc2)cc(Cl)c1O
  -25	9	1.1	-1.3%	7	6.3
Cc1ccc(-n2c(=O)c3c(C)c(C)sc3n(Cc3cc(=O)n4ccccc4n3)c2=O)cc1C
  -8	-7	-0.7	-0.1%	-24	-1.8
O=C(CSc1ccc(-c2ccccn2)nn1)c1ccccc1
  -86*	3	0.3	-1.5%	-3	-5.4
Cc1cc(C)c(S(=O)(=O)N2CCN(C)CC2)c(C)c1
  2	-16	1.8	-1.3%[38.3 µM]	-11	-1.9
Cc1[nH]c2ccccc2c1SCC(=O)N1CCCCCC1
  -4	6	-0.4	1.6%	-2	-4.1
ON(CCc1ccccn1)CCc1ccccn1
  ?	9	1.7	2.2%	3	-0.2
Cc1cccc(NC(=O)C2CCN(S(=O)(=O)c3ccc(F)cc3)CC2)c1C
  .	20	-0.5	-0.5%	.	.
COCCCN1C(=O)CC(C(=O)OC)=C1C
  10	23	0.0	0.9%	-1	-2.2
C/[N+]([O-])=C\c1ccc([N+](=O)[O-])o1
  -1	2	1.0	-0.1%	-1	0.7

# Whole records, looked up by structure:
# Results for Cc1cccc(NC(=O)C2CCN(S(=O)(=O)c3ccc(F)cc3)CC2)c1C = Six1-Eya2 blk = .; TRPML1 inh = 20; TRPML1 ag = -0.5; PINK1 modulator = -0.5%; D2 potentiator = .; D2 agonist = .
# Results for Cc1ccc(S(=O)(=O)N2CCN(C)CC2)cc1[N+](=O)[O-] = Six1-Eya2 blk = -1; TRPML1 inh = -8; TRPML1 ag = 0.5; PINK1 modulator = -2.6%[38.3 µM]; D2 potentiator = -4; D2 agonist = 0.7
# Results for C/[N+]([O-])=C\c1ccc([N+](=O)[O-])o1 = Six1-Eya2 blk = -1; TRPML1 inh = 2; TRPML1 ag = 1.0; PINK1 modulator = -0.1%; D2 potentiator = -1; D2 agonist = 0.7

# Later entries
# Results follow in this order: Six1-Eya2 blk	TRPML1 inh	TRPML1 ag	PINK1 modulator	D2 potentiator	D2 agonist
CC1CC(=O)N(Cc2ccccc2)c2ccccc2N1C=O (stereo not given)
  5	-1	-0.8	1.5%	-9	-3.3
CC(C)C(=O)N1CCC1(C)C(=O)Nc1ccc2[nH]ccc2c1 (stereo not given)
  3	.	-0.1	2.3%	-6	-6.9
O=C(N/N=C/c1cccnc1)c1ccc(CN2c3cccc4cccc(c34)S2(=O)=O)cc1
  -7	-6	-0.4	-0.3%	2	2.9
O=C(COC(=O)c1ccccc1[N+](=O)[O-])Nc1cccnc1Cl
  5	14	0.0	-0.2%	10	-2.9
Cc1ccc(S(=O)(=O)NN2C(=O)c3ccccc3NC2c2ccccc2)cc1 (stereo not given)
  2	31	1.6	-1.0%	-4	0.8
O=C(c1ccc(-c2nnc(Nc3cccc(Cl)c3)c3ccccc23)cc1)N1C[C@H]2C[C@H](C1)c1cccc(=O)n1C2
  ?	13	-0.2	9.0%	-14	-2.0
CCOc1ccccc1-n1c(SCC(=O)N(CC)CC)nnc1-c1ccccn1
  -2	-4	-0.8	-0.6%	-1	-2.1
Cc1nc(-c2coc3cc(OCC(=O)O)ccc3c2=O)cs1
  -1	15	0.1	10%[38.3 µM]	-7	-2.7
COc1cc(CNc2ncnc3c2ncn3[C@H]2CN(Cc3ccc4c(c3)OCO4)C[C@@H](CO)O2)cc(OC)c1OC
  -6	.	-0.5	1.7%	12	5.0
COCCNC(=O)Cc1ccc(Br)cc1
  6	3	0.2	-4.0%	-4	-3.0
CCn1c(SCC(=O)NCc2ccco2)nc2cccnc21
  4	24	0.3	-1.2%	-6	0.3
O=C(CSc1ccc(-c2ccccc2)nn1)c1cccs1
  -14	25	0.0	-0.9%	-13	-4.0
O=C1C=CC2C3C(=O)N(c4ccccc4)C(=O)C3C1N2Cc1ccccc1 (stereo not given)
  -12	-15	10	-5.0%	-22	-6.5
CC1(C(=O)NS(=O)(=O)C2CC2)CCN(C(=O)c2cc3ccccc3s2)C1 (stereo not given)
  4	.	-0.5	1.0%	-6	-4.2
CCCn1c(C2CCCN2c2nc(-c3cccc(Br)c3)cs2)nc2ccccc21 (stereo not given)
  -4	9	-0.1	11%	-16	-3.7
CC(NC(=O)C1CCC(C)(C(=O)O)C1(C)C)c1ccccc1 (stereo not given)
  16	41	-1.0	1.8%	-12	-2.2
CC(C)OC(=O)C1=C(N)N2C(=O)CSC2=C(C(=O)OC(C)C)C1
  4	18	0.6	0.5%	3	-2.7
c1ccc(-c2nn3nnnc3c3ccccc23)cc1
  0	-5	-0.6	-0.9%	0	-3.2
COc1cc(OC)c(N(C)C(=O)c2nn(C)c3c2CSc2ccccc2-3)cc1Cl
  .	-2	-0.4	2.6%	.	.
CCOC(=O)N1CCC(=NNC(=O)COc2ccc(OC)cc2)CC1
  11	-10	-0.1	-0.8%	-7	-1.3
O=C(O)c1cccc(N2C(=O)c3cc4cccc(Br)c4cc3C2=O)c1
  -4	5	-0.8	-0.3%	-2	0.0
CC(C)CC(NC(=O)C1CCCN1C(=O)CNC(=O)OCc1ccccc1)C(=O)O (stereo not given)
  15	-26	0.5	4.1%	-4	-7.2
Oc1ccc(C[C@H]2CNC(=S)N2CC2CCCN2C[C@H](Cc2ccc(O)cc2)N2C[C@H](Cc3ccccc3)N(CCc3ccccc3)C2=S)cc1 (stereo not given in full)
  -13	0	-1.0	3.3%	-5	1.7
COc1ccc(-c2ccc(SCC(=O)Nc3nccs3)nn2)cc1OC
  141	1	-0.1	7.6%	-4	2.4
O=Cc1ccc(-c2cccs2)s1
  16	-15	0.8	-4.6%	-19	-1.1
Cc1ccc(NC(=O)CCc2nnc3ccc(N4CCC5(CC4)OCCO5)nn23)nc1
  -10	-8	-1.4	-0.9%	-8	4.8
COC(=O)[C@@H](CC(C)C)NS(=O)(=O)N(Cc1ccccc1)[C@@H](CC(C)C)C(=O)OC
  12	32	2.3&0.3	25%	-4	-3.0
COc1ccc(S(N)(=O)=O)cc1C(=O)OCC(=O)N1CC(=O)Nc2ccccc21
  3	2	0.3	-0.7%	-52	-1.0
CCOC(=O)c1cccc(NC(=O)CCc2nc(-c3ccc(C)cc3)no2)c1
  1	64	2.2	7.5%	-19	-1.9
Cc1ccc(NC(=O)CN2CCCCCC2)cc1[N+](=O)[O-]
  -4	5	-0.7	7.7%	-5	-7.9

# Part of the list above in order of heavy-atom count, rising:
# Results follow in this order: Six1-Eya2 blk	TRPML1 inh	TRPML1 ag	PINK1 modulator	D2 potentiator	D2 agonist
O=Cc1ccc(-c2cccs2)s1
  16	-15	0.8	-4.6%	-19	-1.1
Cc1nc(-c2coc3cc(OCC(=O)O)ccc3c2=O)cs1
  -1	15	0.1	10%[38.3 µM]	-7	-2.7
O=C(N/N=C/c1cccnc1)c1ccc(CN2c3cccc4cccc(c34)S2(=O)=O)cc1
  -7	-6	-0.4	-0.3%	2	2.9

# (further entries)
# Results follow in this order: Six1-Eya2 blk	TRPML1 inh	TRPML1 ag	PINK1 modulator	D2 potentiator	D2 agonist
O=S(=O)(c1ccc(-c2ccno2)s1)N1CCCCC1
  -4	0	-0.5	0.4%	6	-2.9
CCOc1ccc(CNC(=O)CCC(=O)N2Cc3cccc(OC)c3Oc3ncccc32)cc1
  0	-11	-0.2	0.4%	-5	-10
CCc1ccc(OCCOCC(O)CN(CCO)CCO)cc1 (stereo not given)
  13	11	1.3	0.6%	-8	0.8
Cn1c(SCC(=O)NCc2cccs2)nnc1-c1ccco1
  2	-3	-0.3	3.2%[38.3 µM]	-8	-2.8
CC1(C)Cc2c(sc(NC(=O)Nc3ccccc3)c2C(N)=O)CO1
  0	11	3.2	0.6%	2	-3.8
CCOc1ccc(CCN2C(=S)N([C@@H](Cc3ccccc3)CN3CCCC3CN3C(=S)NC[C@@H]3Cc3ccccc3)C[C@@H]2Cc2ccc(O)cc2)cc1 (stereo not given in full)
  -2	.	7.7	2.5%	.	.
CCOC(=O)c1ccc(N2C(=O)CC(Sc3nc(O)c(CC)c(=O)[nH]3)C2=O)cc1 (stereo not given)
  7	0	-0.1	-3.4%	-8	-2.4
OCCCc1nc2ccccc2n1Cc1ccccc1
  5	-10	0.7	-1.5%	-2	-2.1
O=C(Nc1ccc(Cl)cc1)N1CCCC1
  1	3	0.0	15%[38.3 µM]	-10	-3.5
Cc1ccc(NC(=O)c2ncn(CCCN3CCN(c4ncccn4)CC3)n2)cc1C
  -19	11	-0.6	-1.2%	.	0.4
N#Cc1c(N)n(-c2ccccc2N)c2nc3ccccc3nc12
  -11	18	-0.8	-0.4%	11	14
CC(C)c1ccc(OC(=O)c2cc(-c3ccccc3)on2)cc1
  .	-3	-0.6	0.0%	.	.
O=C(NC1CC(=O)N(c2cccc(F)c2)C1)c1ccc(S(=O)(=O)N2CCCCC2)cc1 (stereo not given)
  .	2	0.5	0.8%	.	.
O=C(NC1CCCCC1)C(c1ccc(F)cc1)N(Cc1cccs1)C(=O)CN1C(=O)c2ccccc2S1(=O)=O (stereo not given)
  7	-8	-0.6	4.8%	-19	-3.1
COc1cccc(N(CC(=O)NCCSc2ccccn2)S(C)(=O)=O)c1
  -2	13	-0.4	1.3%	-19	-3.3
C=CCN1C(=O)C(Cc2ccccc2)S/C1=N/N=C/c1cccs1 (stereo not given)
  -2	-8	1.6	1.0%	-5	-4.0
c1ccc(-c2nnsc2Sc2ccccn2)cc1
  25	37	4.9	6.7%	-6	0.4
COc1ccc(/C=C/C(=O)c2ccoc2)cc1
  11	3	0.4	4.9%	-6	3.4
CC(NCC(O)COc1ccccc1)C1COc2ccccc2O1 (stereo not given)
  4	-10	1.6	-1.9%	-10	?
COc1ccc(CCN2Cc3c(N)cccc3C2=O)cc1OC
  10	-13	-0.9	0.1%	-3	-2.2
Cc1cc(C)cc(Nc2ccc(C(=O)O)cc2N)c1
  -11	6	-0.7	0.6%	8	2.8
CCOc1cc(C)ccc1OCc1nnc(SCC(=O)c2cccc([N+](=O)[O-])c2)n1C
  5	2	0.6	-1.9%[38.3 µM]	29	0.8
Nc1nnc(C(c2ccccc2)c2ccccc2)s1
  1	-2	4.1	-1.8%	-10	0.1
O=C(NCCCn1ccnc1)C(=O)NCC(c1cccnc1)N1CCN(c2ccccc2)CC1 (stereo not given)
  4	0	-0.2	-1.3%	-5	-3.6
Cc1ccc(COc2ccc(CNCCCN3CCCCCC3=O)cc2)cc1
  -1	-4	-0.7	1.8%	-9	-0.6
O=c1[nH]c(CSc2ncnc3sc(-c4ccccc4)cc23)nc2ccccc12
  0	4	0.1	17%	-5	-2.2
COc1ccccc1NC(=O)/C(=C/c1cccc([N+](=O)[O-])c1)c1ccccc1
  -25	17	-0.6	-1.0%	-11	-4.0
CCOc1ccc(-c2c(C(=O)N/N=C/c3ccc(OC(C)C)cc3)nnn2-c2nonc2N)cc1
  -1	8	-0.3	1.7%	-1	-4.6
CCc1nnc2c(NCCc3ccccc3)nc3ccccc3n12
  -6	6	4.2	1.0%	-1	-2.9
CCC(C(=O)O)n1nnc(-c2ccc(-c3ccc(OC)cc3)cc2)n1 (stereo not given)
  -6	-10	0.4	-3.7%[38.3 µM]	10	1.3
